Source: PubChem BioAssay (ICCB-Longwood Screening Facility, Harvard Medical School)
Sa helicase inh = S. aureus DNA helicase inhibition. 0.05% of 120,000 active. inhibition, %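 (tested at about 80 µM)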. purified S. aureus helicase, fluorescence unwinding assay; about half of the hits fall short of the stated cut;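 active = both duplicates at 50% or more, or one of them with a favoured structure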;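 note: 0% = mean of negative control wells and 100% = mean of positive control wells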
MgrA DNA FP = modulators of Staphylococcus aureus MgrA DNA binding; fluorescence polarization; inhibition, %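 (about 10 µg/mL by stock and volumes)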; 0.13% of 84,000 active;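 active = above 50% in either of two replicates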;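 note: 0% = protein plus DNA without compound and 100% = DNA alone without protein; higher means less MgrA bound to DNA so lower polarization; one replicate is shown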
Starred values were filed as active, the others as inactive; · = not tested or not shown; & = joins results of further samples.

compound	Sa helicase inh	MgrA DNA FP
O=C(O)CCC(=O)c1ccc(-c2ccccc2)cc1	·	-0.3&4.0
CCCCNc1ccc(C(=O)OCCN(C)C)cc1	·	3.1&1.9
CCOC(=O)[C@H](CCc1ccccc1)N[C@@H](C)C(=O)N1Cc2ccccc2C[C@H]1C(=O)O	·	3.8
C/C=C/C(=O)N(CC)c1ccccc1C	·	2.1&2.5
CCN(CC)CCOC(=O)c1ccc(N)cc1	·	0.2&0.2
COc1ccc(C2CNC(=O)C2)cc1OC1CCCC1 (stereo unspecified)	·	1.0&-0.1
COc1cc2ncnc(Nc3cccc(Cl)c3)c2cc1OC	·	0.8&-0.8
Cc1cc(N2CCN(C)CC2)nc2ccc(NC(=S)NCc3ccco3)cc12	15.0	·
CC(=O)O[C@]1(C(C)=O)CC[C@H]2[C@@H]3C=C(Cl)C4=CC(=O)C5CC5[C@]4(C)[C@H]3CC[C@@]21C (stereo partly specified)	·	-1.5
Cc1cn(C2CC(O)C(CO)O2)c(=O)[nH]c1=O (stereo unspecified)	16.0	-0.8
CN1CCCN=C1COC(=O)C(O)(c1ccccc1)C1CCCCC1 (stereo unspecified)	·	-0.7
CC1Cc2ccccc2N1NC(=O)c1ccc(Cl)c(S(N)(=O)=O)c1 (stereo unspecified)	·	-0.2
N#Cc1ccc(C(c2ccc(C#N)cc2)n2cncn2)cc1	·	-0.1
CCCCNc1ccc(C(=O)OCCOCCOCCOCCOCCOCCOCCOCCOCCOC)cc1	·	5.2
CCOC(N)=O	·	4.2
C[N+]1(C)CCC(=C(c2ccccc2)c2ccccc2)CC1	·	-0.2
C1COC(NC(C2CC2)C2CC2)=N1	·	2.0
CNCCCN1c2ccccc2CCc2ccccc21	·	0.5&1.3
Cc1ccc(N(CC2=NCCN2)c2cccc(O)c2)cc1	·	0.2&-3.0&2.5
O=C(O)c1ccc2ccccc2c1O	16.0	·
O=C1OC(Nc2ccc(S(=O)(=O)Nc3ccccn3)cc2)c2ccccc21 (stereo unspecified)	1.0	-1.1
CCc1ccc(CCOc2ccc(CC3SC(=O)NC3=O)cc2)nc1 (stereo unspecified)	·	-0.3
CCCCCCCCCCCCCCC[C@H](O)[C@@H](N)CO	·	3.1
CC12CC3CC(C)(C1)CC(N)(C3)C2	·	3.0&0.8
O=c1oc2c(O)c(O)cc3c(=O)oc4c(O)c(O)cc1c4c23	·	10.0

Ordered by molecular weight (smallest number first): part of the list above
compound	Sa helicase inh	MgrA DNA FP
CCOC(N)=O	·	4.2
CC12CC3CC(C)(C1)CC(N)(C3)C2	·	3.0&0.8
C/C=C/C(=O)N(CC)c1ccccc1C	·	2.1&2.5
O=C(O)CCC(=O)c1ccc(-c2ccccc2)cc1	·	-0.3&4.0
O=C1OC(Nc2ccc(S(=O)(=O)Nc3ccccn3)cc2)c2ccccc21 (stereo unspecified)	1.0	-1.1
CCOC(=O)[C@H](CCc1ccccc1)N[C@@H](C)C(=O)N1Cc2ccccc2C[C@H]1C(=O)O	·	3.8

By substructure, the compounds so far containing a carbonyl joined to an NH by a bond outside any ring
compound	Sa helicase inh	MgrA DNA FP
CC1Cc2ccccc2N1NC(=O)c1ccc(Cl)c(S(N)(=O)=O)c1 (stereo unspecified)	·	-0.2
CCOC(N)=O	·	4.2

(more compounds)
compound	Sa helicase inh	MgrA DNA FP
CCn1cc(C(=O)O)c(=O)c2cnc(N3CCNCC3)nc21	·	1.8&1.6
NC(N)=O	·	0.3
CC(=O)CCCCn1c(=O)c2c(ncn2C)n(C)c1=O	·	1.9&0.8
O=C(O)c1cccnc1Nc1cccc(C(F)(F)F)c1	·	0.4&4.0&4.9
COc1ccc(-n2c(SCC#N)nc3sc4c(c3c2=O)CCCC4)cc1	·	-0.5

Structures shown so far that contain a Cl atom, in the order listed:
compound	Sa helicase inh	MgrA DNA FP
COc1cc2ncnc(Nc3cccc(Cl)c3)c2cc1OC	·	0.8&-0.8
CC(=O)O[C@]1(C(C)=O)CC[C@H]2[C@@H]3C=C(Cl)C4=CC(=O)C5CC5[C@]4(C)[C@H]3CC[C@@]21C (stereo partly specified)	·	-1.5
CC1Cc2ccccc2N1NC(=O)c1ccc(Cl)c(S(N)(=O)=O)c1 (stereo unspecified)	·	-0.2

This is a subset. The share of hits here may be higher or lower than overall.
